Source: PubChem
PrP UTR inh: inhibition of PrP 5' UTR reporter expression. actives 0.35% (n = 340,000). cell-based PrP 5' UTR mRNA reporter, plate reader. inhibition, % (concentration not given with the values);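 active means every replicate at 50% or more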;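 further: 0 = median of the neutral control wells; tested in H4 reporter cells; numbers are from one replicate; inactives centre near -14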
ugtP null kill: growth inhibition of ugtP-null S. aureus, primary screen, RN4220 ugtP deletion, OD600. 16 h; some inactives read as strong as hits. growth inhibition, % (test concentration not listed). actives 0.54% (n = 330,000). AID 1259309, 2017;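 active means z-score under -3 and OD600 up to 0.15 on both plates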;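 further: plate controls were untreated wells for no effect and antibiotic for full effect; wells of about 80 µL received 100 nL stock; the first replicate is given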
BJeLR viability: MLPCN primary cell-based screen for lethality selective to Ras in HRASV12 cells; AID 1554, 2009; BJeLR (HRASV12) viability, CellTiter-Glo ATP luminescence, 48 h; reference of the scale not given here; inhibition, % (concentration not given with the values); actives 0.17% (n = 300,000);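 active means replicate mean above 50%; inconclusive means above 50% but judged a plate artefact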;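 further: 50 nL library stock added to about 25 µL; numbers are from one replicate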
Sa RN4220 lethal: growth inhibition of S. aureus RN4220, primary screen, OD600; inhibition, % (concentration not given with the values); actives 0.33% (n = 330,000); 16 h;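 active means z-score of -3 or lower and OD600 up to 0.18 on both plates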;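 further: plate controls were untreated cells for no effect and reference antibiotic for full effect; stock transfer was 100 nL into about 80 µL; one replicate is shown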
Mtb hypoxia inh: PubChem AID 1159583. M. tuberculosis hypoxia-regulated fluorescent reporter, fluorescence. fluorescence inhibition, % (test concentration not listed). actives 0.1% (n = 300,000);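 active means 35 to 45% if threefold the growth effect, above 45% if 1.5-fold the growth effect; inactive means the rest, general growth blockers included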;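 further: wells of about 50 µL received 100 nL stock; 0% = vehicle wells and 100% = reference inhibitor wells; whole bacteria with a GFP reporter of the hypoxia response; strong numbers were not always called active; many hits fall short of the cut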
Bead autofluor: counter-screen for toxin protease inhibitors: compound fluorescence; compound autofluorescence counterscreen, microsphere flow cytometry; active compounds read high; fluorescence intensity (no concentration beside the values); actives 3.1% (n = 360,000);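 active means at least 3 SD above the mean of all compounds, about 16000 in these data; inconclusive means too few beads counted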;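 further: 100 nL of 1 mM stock went into each well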
Mtb hypoxia inh growth: second read-out of Mtb hypoxia inh, no call of its own (marks repeat the call); growth inhibition, %; measured here: M. tuberculosis growth (absorbance);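 0% = vehicle and 100% = reference antibiotic; read after six days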
Numbers without * were called inactive; ? = inconclusive; . = no result given.

cpd	canonical_smiles	Bead autofluor	Mtb hypoxia inh growth	PrP UTR inh	ugtP null kill	BJeLR viability	Sa RN4220 lethal	Mtb hypoxia inh
1	CCN(CC(=O)Nc1ccccc1C(F)(F)F)C(=O)c1ccccc1Sc1ccccc1C#N	8044	9	-6	-5	.	13	6
2	COC(=O)Cc1[nH]c(=O)[nH]c1C(=O)OC	5343	-2	6	1	10	3.7	2
3	CN(C)CCNC(NC(=O)c1cccs1)C(Cl)(Cl)Cl (configuration not stated)	10955	1	-23	0	12	0.0	3
4	COc1ccc(NC(=O)CCN2CCCC2)c(OC)c1	3023	1	4	14	2	-0.3	5
5	O=C(Nc1ccc(Cl)cc1)N1N=CCC1c1ccccc1 (configuration not stated)	4466	5	.	9	-4	-1.0	0
6	CC(=O)OCC(=O)C1(O)CCC2C3CC(F)C4=CC(=O)CCC4(C)C3C(O)CC21C (configuration not stated)	3569	12	-8	2	.	4.2	19
7	CCN1CCN(c2nc(C)c3c(n2)CC(C)CC3=O)CC1 (configuration not stated)	4423	3	-24	5	-6	13	-2
8	CC1CCCC(C)N1CC(O)COC1CCC(C(C)(C)C)CC1 (configuration not stated)	3801	-5	-9	46	6	2.4	-8
9	CC(=NNC(=O)C1CC1)c1ccc(NC(=O)c2ccc(Br)o2)cc1	.	-9	.	8	.	2.6	-7
10	COc1cc(C=O)ccc1OCCOCCOc1ccc(Cl)cc1	2727	.	-9	5	-2	0.9	.
11	Cc1cc(C)n(-c2ccc(C(=O)NCC(=O)Nc3cc(Cl)ccc3Cl)cc2)n1	3562	3	-30	9	.	1.4	12
12	COc1ccccc1NC(=O)C(C)OC(=O)c1nc2nc(C)cc(C)n2n1 (configuration not stated)	5642	-1	-97	4	-3	3.6	9
13	CCOC(=O)c1c(NC(=O)c2ccc(Cl)s2)sc(C)c1C	4978	.	-16	4	2	10.0	.
14	Cc1ccc(S(=O)(=O)N(C)C)cc1NC(=O)CCc1c[nH]c2ccccc12	4519	9	-6	5	7	1.1	0
15	Cc1ccc(C)c(NC(=O)c2ccccc2O)c1	3837	.	-55	-9	5	-2.1	.
16	O=C(Nc1nnc2n1CCS2)c1ccc(Br)o1	5236	.	-36	.	9	.	.
17	Cc1cccc(Oc2ccc(NC(=O)c3ccccc3C(=O)O)cc2)c1	4648	10	-8	5	12	4.8	8
18	CCCCn1c(N)c(N(CCOC)C(=O)c2cccc(S(=O)(=O)N3CCCCC3)c2)c(=O)[nH]c1=O	5254	0	-16	8	-6	3.6	7
19	CCC(NC(=O)C1CCCC1)c1ccc(C)cc1 (configuration not stated)	4073	19	-13	-3	-6	-1.3	14
20	COc1ccc(-c2cc(C3CCNCC3)[nH]n2)cc1	3799	9	-7	1	-1	-0.5	9

Full records from above:
CN(C)CCNC(NC(=O)c1cccs1)C(Cl)(Cl)Cl (configuration not stated) is entered as Bead autofluor: 10955; Mtb hypoxia inh growth: 1; PrP UTR inh: -23; ugtP null kill: 0; BJeLR viability: 12; Sa RN4220 lethal: 0.0; Mtb hypoxia inh: 3
COC(=O)Cc1[nH]c(=O)[nH]c1C(=O)OC is entered as Bead autofluor: 5343; Mtb hypoxia inh growth: -2; PrP UTR inh: 6; ugtP null kill: 1; BJeLR viability: 10; Sa RN4220 lethal: 3.7; Mtb hypoxia inh: 2

Continuation:
cpd	canonical_smiles	Bead autofluor	Mtb hypoxia inh growth	PrP UTR inh	ugtP null kill	BJeLR viability	Sa RN4220 lethal	Mtb hypoxia inh
21	O=C1/C(=C/c2cc([N+](=O)[O-])ccc2Cl)N2CCC1CC2	16507*	-6	-12	-3	6	-1.7	-6
22	COc1cccc2cc(C(=O)N3CC(C)OC(C)C3)c(=O)oc12 (configuration not stated)	.	-6	-13	8	-14	2.9	-2
23	O=C(O)c1cc2c(ccc3ccccc32)[nH]1	2313	.	-4	-4	3	11	.
24	CN(CCc1ccccc1)C(=O)c1ccc(NC(=O)Cc2cccc([N+](=O)[O-])c2)cc1	2918	7	6	-9	.	4.2	8
25	CSc1ncccc1C(=O)N(C)CC(=O)Nc1ccc(Cl)c(C(F)(F)F)c1	5981	1	-9	4	-1	-3.2	3
26	N#Cc1c(SCC(=O)Nc2ccccc2)nsc1SCC(=O)Nc1ccccc1	2158	-16	-1	-8	-2	2.0	-11
27	O=C(Nc1nccs1)c1ccc(Br)s1	5615	1	-50	10	0	2.6	4
28	COc1ccc(C2C(C(C)=O)=C(C)N=c3s/c(=C\c4cc(C)n(C)c4C)c(=O)n32)c(OC)c1 (configuration not stated)	12543	.	5	.	-11	.	.
29	Cc1cccc(OCCCC(=O)Nc2ccc(N3CCCCC3)cc2)c1C	11021	-7	-3	8	-18	1.3	2
30	O=C(Nc1ccc(F)cc1Cl)c1ccc2c(=O)n3c(nc2c1)CCCCC3	4923	.	-58	5	1	5.0	.
31	O=C(Oc1ccc(Nc2ncnc3ccccc23)cc1)c1cccnc1	2472	-1	-13	3	8	8.4	-9
32	Cn1c(=O)n(-c2cccc(Cl)c2)c(=O)n1C	11145	6	-28	2	-4	0.0	2
33	CN(Cc1ccccc1)C(=O)CCC1CCN(C(=O)c2ccccc2C(F)(F)F)CC1	6304	9	-18	-3	1	-0.8	-6
34	CN(Cc1ccc(F)cc1)Cc1nc(-c2ccccc2)no1	4484	14	-20	7	-2	4.2	23
35	Cc1noc(/C=C/c2ccco2)c1S(=O)(=O)N1CCC(C(=O)N2CCc3ccccc3C2)CC1	5467	10	-21	-21	3	0.1	-3
36	COc1ccc(C2Nc3cc(OC)ccc3-n3cccc32)cc1 (configuration not stated)	.	2	-11	2	-2	4.0	3
37	CN(c1ccccc1C(=O)Nc1ccc(F)c(F)c1)S(C)(=O)=O	4498	5	-23	3	3	3.1	8
38	C=CCOc1cccc(C2/C(=C(/O)c3ccc(Cl)cc3)C(=O)C(=O)N2CCN2CCOCC2)c1 (configuration not stated)	8400	6	-28	-5	-8	6.9	-2
39	COc1ccc2cc3c(N)c(C(=O)NCc4ccco4)sc3nc2c1	4228	12	-37	8	-8	0.5	6
40	OCC[C@@H]1C[C@H](O)[C@@H](O)[C@@]2(OCCCc3ccccc32)O1	3763	.	27	.	11	.	.
41	CN(/N=C/c1cc(Cl)cc(Cl)c1O)C(=S)NC(C)(C)C	5893	.	-16	.	3	.	.
42	CN(CC(=O)Nc1ccc(F)cc1)C(=O)c1ccccc1Sc1ccccc1C#N	5951	12	-7	-5	.	6.0	8
43	O=[N+]([O-])c1ccc(N2CCCCCC2)c2nonc12	14674	.	-11	.	-5	.	.
44	Cc1ccc(N=C2C(=O)Nc3ccc(Br)cc32)cc1	3579	-2	-19	2	-4	0.1	1
45	CCc1cc2cc3c(cc2nc1SCC(=O)Nc1c[nH]c(=O)[nH]c1=O)OCO3	3677	2	-16	3	-7	5.3	1
46	O=C(CSc1nc2c([nH]c3ccccc32)c(=O)n1-c1cccc(Cl)c1)N1CCOCC1	4444	11	-11	13	8	2.0	15
47	CN(C)S(=O)(=O)c1ccc(C(=O)N2CCCC2c2nc3ccccc3s2)cc1 (configuration not stated)	3083	16	-3	-4	-1	-13	17
48	C/C(CC(=O)Nc1ccccn1)=N\NC(=O)C(=O)Nc1ccccc1C	3147	.	-11	.	-4	.	.
49	COc1ccc(C(=O)N(Cc2ccccc2)c2cccc(C)c2)cc1	5239	7	-22	9	-4	5.0	5
50	COc1cccc(C2C(C(=O)c3cc4ccccc4o3)=C(O)C(=O)N2c2cc(C)on2)c1 (configuration not stated)	4992	-2	-18	61	5	31	-9
51	CNc1ncc(C(=O)c2ccc(-c3ccccc3)cc2)s1	5116	-4	-53	2	-3	7.4	2
52	O=C(NNc1cc(N2CCOCC2)nc(N2CCOCC2)n1)c1ccc(Cl)cc1Cl	8613	12	-49	3	3	2.8	4
53	Cc1cccc(NC(=O)CSc2nc(N)cc(N)n2)c1	2574	.	-21	4	0	2.8	.
54	CN(C)S(=O)(=O)Nc1cc(F)cc(F)c1	5650	-1	-12	4	-2	5.1	8
55	Cc1cccc2[nH]c(-c3ccc(NC(=O)c4ccco4)cc3)nc12	4639	1	-101	0	2	-0.5	1
56	O=C(NC1CCCCC1)c1ccc(S(=O)(=O)NCc2ccco2)cc1	21532*	17	-24	4	-4	-0.2	5
57	COC1=C/C(=C/c2c(N)n3nc(CC(=O)N4CCCC4)sc3nc2=O)C=CC1=O	5907	11	-38	2	6	-0.5	9
58	Cc1cc(Nc2ncc(Cl)cc2Cl)n(-c2ccccc2C)n1	2553	-3	-3	2	-4	7.1	6
59	COc1ccc(CCNC(=S)Nc2ccc(C(C)C)cc2)cc1	?	4	-15	4	-7	0.5	12
60	Cn1c(=O)n(CC(=O)O)c(=O)c2c1nc1n2CCCN1Cc1ccccc1	4278	3	-27	18	4	5.0	2
61	Cc1onc(-c2c(Cl)cccc2Cl)c1NC(=O)NC1CCSC1 (configuration not stated)	6232	11	.	1	-7	0.4	11
62	COc1cccc(CNCc2ccco2)c1O	3837	9	-11	5	-8	4.4	0
63	CCCC(=O)NC(C)C(c1cccs1)N1CCN(C)CC1 (configuration not stated)	10835	-4	.	-3	2	6.7	6
64	COc1ccc(NS(=O)(=O)c2ccc(-c3coc(C)n3)cc2)c(OC)c1	5223	8	-17	-3	5	2.6	0
65	CCCC(C(=O)NCCC(C)C)N(Cc1ccccc1)C(=O)c1snc(C(N)=O)c1N (configuration not stated)	4125	12	-39	4	2	-1.6	1
66	O=C(Nc1ccc(NC(=O)c2cccs2)cc1)c1ccc2ccccc2c1	4543	-10	-9	-7	3	6.9	-6
67	CC1CC(C)(C)NC(=S)N1CCCC(=O)NCCc1ccc(Cl)cc1 (configuration not stated)	4177	-2	-19	2	.	3.3	7
68	O=C(Nc1nc(COc2ccccc2)cs1)c1ccccc1F	2359	4	-19	2	1	-0.3	3
69	COc1cccc(CN(C)C(=O)COc2ccc(C(=O)c3ccc(Cl)cc3)cc2)c1OC	3703	-6	-17	-4	-1	-9.9	-7
70	O=C(CN1C(=O)NC2(CCCC2)C1=O)OCc1ccc(F)cc1	5037	0	-15	1	-5	2.1	10

Among those listed so far, 14 have an aryl methoxy group:
cpd	canonical_smiles	Bead autofluor	Mtb hypoxia inh growth	PrP UTR inh	ugtP null kill	BJeLR viability	Sa RN4220 lethal	Mtb hypoxia inh
4	COc1ccc(NC(=O)CCN2CCCC2)c(OC)c1	3023	1	4	14	2	-0.3	5
10	COc1cc(C=O)ccc1OCCOCCOc1ccc(Cl)cc1	2727	.	-9	5	-2	0.9	.
12	COc1ccccc1NC(=O)C(C)OC(=O)c1nc2nc(C)cc(C)n2n1 (configuration not stated)	5642	-1	-97	4	-3	3.6	9
20	COc1ccc(-c2cc(C3CCNCC3)[nH]n2)cc1	3799	9	-7	1	-1	-0.5	9
22	COc1cccc2cc(C(=O)N3CC(C)OC(C)C3)c(=O)oc12 (configuration not stated)	.	-6	-13	8	-14	2.9	-2
28	COc1ccc(C2C(C(C)=O)=C(C)N=c3s/c(=C\c4cc(C)n(C)c4C)c(=O)n32)c(OC)c1 (configuration not stated)	12543	.	5	.	-11	.	.
36	COc1ccc(C2Nc3cc(OC)ccc3-n3cccc32)cc1 (configuration not stated)	.	2	-11	2	-2	4.0	3
39	COc1ccc2cc3c(N)c(C(=O)NCc4ccco4)sc3nc2c1	4228	12	-37	8	-8	0.5	6
49	COc1ccc(C(=O)N(Cc2ccccc2)c2cccc(C)c2)cc1	5239	7	-22	9	-4	5.0	5
50	COc1cccc(C2C(C(=O)c3cc4ccccc4o3)=C(O)C(=O)N2c2cc(C)on2)c1 (configuration not stated)	4992	-2	-18	61	5	31	-9
59	COc1ccc(CCNC(=S)Nc2ccc(C(C)C)cc2)cc1	?	4	-15	4	-7	0.5	12
62	COc1cccc(CNCc2ccco2)c1O	3837	9	-11	5	-8	4.4	0
64	COc1ccc(NS(=O)(=O)c2ccc(-c3coc(C)n3)cc2)c(OC)c1	5223	8	-17	-3	5	2.6	0
69	COc1cccc(CN(C)C(=O)COc2ccc(C(=O)c3ccc(Cl)cc3)cc2)c1OC	3703	-6	-17	-4	-1	-9.9	-7
